Bioassay records: PubChem, National Center for Advancing Translational Sciences (NCATS)
HTT promoter inh = inhibits huntingtin promoter activity; 48,000 tested, 0.93% active; HEK293 HTT promoter firefly luciferase reporter (activity 0% = vehicle and -100% = no light), 24 h; Potency, µM (top dose mostly 57.5 µM), without a hit: at the highest dose activity change, negative = inhibition, usual class: inhibitors; AID 1508623; active = well fitted inhibition curve with a large enough effect; inconclusive = small, poorly fitted or top-dose-only effect; inactive = no such curve, though single readings can be large or run the other way; also: nearly all actives have a fitted effect of over 50% in size
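Quantitative HTS used concentration series of up to 57.5 uM final on HEK293 luciferase reporter cells, 24 h at 37 degrees C. Readout was Dual-Glo firefly luminescence.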
PMP22 txn prim = modulates PMP22 transcription in S16 Schwann cells; S16 Pmp22-F2sN Schwann cells (luciferase reporters placed in the Pmp22 gene), FLuc/NLuc coincidence luminescence, 24 h; Potency, µM (highest dose often 57.5 µM), for inactives: top-dose activity change, negative = inhibition, actives largely listed as inhibitors; 43,000 tested, 2% active; AID 1508649; active = clear falling dose curves in both reporters; inconclusive = both reporters move, but less clearly or upward; inactive = either reporter flat; the % is the NLuc reporter signal; also: % is scaled to controls: 0 for no effect and ±100 for the full control effect; some results filed as inactive show a strong effect at the top dose
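qHTS, 1536-well. Cells seeded, compounds added by pin tool, 24 h 37C. Nano-Glo reagent 1 (lysis/FLuc), 10 min RT, read; Stop&Glo, 10 min RT, read NLuc.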
The depositor's hits bear a star; u = inconclusive; x = not tested or not shown; [ ] = dose if it differs, or a comment. Potency is read from the fitted curve at half-maximal effect. An unsorted share of the library; 2.4% or so of the library scored in one or more.

(1) CC(CCc1ccccc1)NC(=O)Cn1ncc2c3ccccc3n(Cc3ccc(F)cc3)c2c1=O (stereo not drawn)
(2) CNC(=O)C1CCC(Cn2c(=O)c3sccc3n(Cc3cc(C)ccc3C)c2=O)CC1 (stereo not drawn)
(3) O=C(CSc1nc2c([nH]c3ccccc32)c(=O)n1-c1ccccc1)c1ccccc1
(4) CCc1c(CN2CCN(c3cccc(C)c3)C(C)C2)csc1C (stereo not drawn)
(5) CCOc1ccc(CNC(=O)c2ccc3nc(C(C)C)oc3c2)cc1
(6) COc1ccc(C(=O)Nc2cnc3ccccn3c2=O)cc1
screen / no.	1	2	3	4	5	6
HTT promoter inh	-13%	2%	0%	-9%	1%	54%[activator]
PMP22 txn prim	7%	-4%	-17%	-20%	-9%	7%

(7) CCCn1c2ccccc2c2cnn(CC(=O)NCCc3ccc(OC)cc3OC)c(=O)c21
(8) CCOC(=O)c1nc(N2CCN(c3ccc(F)cc3)CC2)c2c(C)noc2n1
(9) CCCCSc1nnc2c(n1)OC(c1ccc(C)s1)Nc1ccccc1-2 (stereo not drawn)
(10) CCc1ccc(NC(=O)c2oc3c(c2C)-c2[nH]ncc2CC3)cc1
(11) COc1ccc(C(=O)N2CCC(C(=O)Nc3ccc(OC)cc3OC)CC2)cc1
(12) Cc1ccc(N(CC(=O)NCCSc2ccccc2)S(=O)(=O)c2ccc(F)cc2)cc1
screen / no.	7	8	9	10	11	12
HTT promoter inh	-10%	-20%	22%	80%[activator]	-21%	-3%
PMP22 txn prim	9%	12%	u	u	11%	u

(13) Oc1ccccc1-c1nc(-c2cccs2)c(-c2cccs2)[nH]1
(14) COc1ccc(CNC(=O)Cn2ncc3c(=O)oc4ccccc4c32)c(OC)c1
(15) COc1ccc(NC(=O)C(CC(C)C)NC(=O)C2CCCCC2)cc1 (stereo not drawn)
(16) Cc1ccc(NC(=O)Cn2c(=O)n(-c3ccc(C)cc3)c(=O)c3ccc(C(=O)NCc4ccccc4Cl)cc32)cc1
(17) COc1ccc(-c2noc(CCC(=O)NCc3ccc(OC)cc3OC)n2)cc1
(18) COc1ccc(-n2nnc(-c3nsc(NC(=O)c4cccc(C)c4)n3)c2C)cc1OC
screen / no.	13	14	15	16	17	18
HTT promoter inh	u	-5%	-13%	u	-39%	u
PMP22 txn prim	u	-33%	0%	4.5µM*	7%	6%

(19) COc1cc(OC)cc(-c2cc3nc(C)c(CCC(=O)NCc4ccccc4)c(C)n3n2)c1
(20) Cc1c(C2=CCN(S(=O)(=O)c3ccc(Br)cc3)CC2)c2ccccc2n1CC(=O)N1CCCC1
(21) COc1cc(C)ccc1OCCSc1nc2ccc(NC(=O)c3ccco3)cc2s1
(22) Cn1c(-n2cccc2)c(-c2c(-c3ccc(F)cc3)[nH]c3c2c(=O)n(C)c(=O)n3C)c(=O)n(C)c1=O
(23) CCOc1ccc(NC(=O)CSc2nc3ccsc3c(=O)n2C(C)CC)cc1 (stereo not drawn)
(24) NC(=O)Nc1cc(-c2ccc(CN3CCOCC3)cc2)sc1C(N)=O
screen / no.	19	20	21	22	23	24
HTT promoter inh	2µM*	-1%	u	6%	-8%	24%
PMP22 txn prim	u	u	u	-2%	-2%	x

(25) CCOC(=O)c1c(NC(=O)c2cc(-c3ccccc3)on2)sc2c1CCCC2
(26) COc1ccccc1CNC(=O)CCn1c(=O)c2ccccc2n(CC(=O)Nc2ccc(C)cc2)c1=O
(27) Cc1c2cnn(CC(=O)N3CCCCC3)c(=O)c2c(C)n1Cc1ccc(Cl)cc1
(28) CC1CCCN(S(=O)(=O)c2ccc3c(c2)CCN3C(=O)CCC(=O)O)C1 (stereo not drawn)
(29) O=C(Nc1cccc(Cl)c1Cl)c1cc2nc(-c3ccc4c(c3)OCO4)cc(C(F)(F)F)n2n1
(30) CCn1c(C)c(C)c2cc(C(=O)NCC(C)c3ccccc3)ccc21 (stereo not drawn)
screen / no.	25	26	27	28	29	30
HTT promoter inh	-9%	u	u	-2%	u	-3%
PMP22 txn prim	3%	u	18%	0%	2%	-38%

(31) CCN(C(=O)CSc1nc2ccccc2n1CC(=O)Nc1ccccc1C)c1ccccc1
(32) COc1cccc(CNC(=O)c2ccc3c(Cl)c4c(nc3c2)CCCC4)c1
(33) O=C1c2ccccc2S(=O)(=O)N1CCCCN1CCN(c2ncccn2)CC1
(34) Cc1ccccc1-c1noc(CCC(=O)Nc2cccc(C)c2C)n1
(35) Cc1cc(/C=C(\C#N)C(=O)Nc2ccccc2)c(C)n1-c1ccc(F)cc1
(36) CCOC(=O)CNC(=O)Nc1cc(C(=O)NCc2ccc(C(C)C)cc2)ccc1N1CCCC1
screen / no.	31	32	33	34	35	36
HTT promoter inh	-3%	-4%	9%	-14%	-3%	-32%
PMP22 txn prim	u	u	x	-16%	7%	u

Look-ups from the entries so far.
no. 32 – HTT promoter inh = -4%
no. 33 – HTT promoter inh = 9%
no. 36 – HTT promoter inh = -32%
no. 31 – HTT promoter inh = -3%
no. 35 – HTT promoter inh = -3%

Fetched by compound from the list above, five records:
(31) CCN(C(=O)CSc1nc2ccccc2n1CC(=O)Nc1ccccc1C)c1ccccc1
(34) Cc1ccccc1-c1noc(CCC(=O)Nc2cccc(C)c2C)n1
(33) O=C1c2ccccc2S(=O)(=O)N1CCCCN1CCN(c2ncccn2)CC1
(36) CCOC(=O)CNC(=O)Nc1cc(C(=O)NCc2ccc(C(C)C)cc2)ccc1N1CCCC1
(32) COc1cccc(CNC(=O)c2ccc3c(Cl)c4c(nc3c2)CCCC4)c1
screen / no.	31	34	33	36	32
HTT promoter inh	-3%	-14%	9%	-32%	-4%
PMP22 txn prim	u	-16%	x	u	u

Next part
(37) COc1ccc(CNC(=O)c2nc(Cn3nc(C)c(Br)c3C)no2)cc1OC
(38) COc1ccc(-n2nc(C(=O)NCc3ccc(F)cc3Cl)c3c4ccccc4n(C)c3c2=O)cc1Cl
(39) CCn1c(=O)c2cc(C(=O)NCCCOC)sc2c2ccccc21
(40) O=C(CNC(=O)c1ccccc1Cl)OCc1cc(=O)n2nc(C3CC3)sc2n1
(41) O=C(CSc1nc2c([nH]c3ccccc32)c(=O)n1-c1ccc(Cl)cc1)NC1CCCCC1
(42) Cc1ccc(-c2noc(CSc3nnc(C)n3-c3ccc(F)cc3)n2)cc1
screen / no.	37	38	39	40	41	42
HTT promoter inh	-40%	-1%	-12%	-11%	-32%	-24%
PMP22 txn prim	-10%	-2%	u	13%	13µM*	-25%

Compound profiles, from the list above. Order of values: HTT promoter inh	PMP22 txn prim
O=C(CSc1nc2c([nH]c3ccccc32)c(=O)n1-c1ccc(Cl)cc1)NC1CCCCC1 is entered as -32%	13µM*
O=C(CNC(=O)c1ccccc1Cl)OCc1cc(=O)n2nc(C3CC3)sc2n1 is entered as -11%	13%
Cc1ccc(-c2noc(CSc3nnc(C)n3-c3ccc(F)cc3)n2)cc1 is entered as -24%	-25%
CCn1c(=O)c2cc(C(=O)NCCCOC)sc2c2ccccc21 is entered as -12%	u
COc1ccc(CNC(=O)c2nc(Cn3nc(C)c(Br)c3C)no2)cc1OC is entered as -40%	-10%

Next structures:
(43) CCN(Cc1nc(-c2ccc(OC)cc2)oc1C)S(=O)(=O)c1ccc(C)cc1
(44) COc1cc(Cn2c(=O)oc3ccc(C)cc32)ccc1OCCC(C)C
(45) COc1ccc(/C=C\c2onc(C)c2S(=O)(=O)N2CCC(C(=O)Nc3cccc(Cl)c3)CC2)cc1
(46) COc1ccc2c(CNC3CCCCCC3)c(C(=O)O)n(Cc3ccc(C)cc3)c2c1
(47) COc1ccc(S(=O)(=O)NCCc2csc(-c3cccc(F)c3)n2)cc1OC
(48) Cc1cc(C)cc(NC(=O)CCc2c(C)nc3nc(CNC(=O)c4cccc(F)c4)nn3c2C)c1
screen / no.	43	44	45	46	47	48
HTT promoter inh	-6%	u	-20%	-32%	u	17%
PMP22 txn prim	-34%	u	u	u	u	-6%

(49) Cc1ccc(-n2c(SCc3nc(-c4ccccc4C)no3)nnc2-c2ccncc2)cc1C
(50) CC(C)(C)c1ccc(S(=O)(=O)Nc2ccc(O)c(Sc3nc4ccccc4s3)c2)cc1
(51) Cc1cccc(CN2C(=O)c3ccccc3S(=O)(=O)c3ccc(C(=O)N(C)Cc4ccccc4)cc32)c1
(52) CCOc1ccc(CCNC(=O)c2cc3c(-c4cccc(OC)c4)nn(C)c3s2)cc1OCC
(53) COC(=O)c1ccccc1NC(=O)CCCn1nc(C)c2sc3ccccc3c2c1=O
(54) CC(=O)N(Cc1cccnc1)c1nc2c(C)cc(C)cc2s1
screen / no.	49	50	51	52	53	54
HTT promoter inh	-28%	u	u	u	-1%	-25%
PMP22 txn prim	u	u	u	u	-3%	-25%

(55) CCC(CC)C(=O)Nc1nnc(SCc2cc(=O)c3ccccc3[nH]2)s1
(56) CC(C)(C)c1ccc(C(=O)N2CCC(c3nc(-c4ccc(S(=O)(=O)N5CCCC5)cc4)no3)CC2)cc1
(57) CCCCN(CCCC)C(=O)c1cc2c(=O)n3ccccc3nc2s1
(58) Cc1ccccc1NC(=O)CN1C(=O)C(C)(C)c2ccccc21
(59) COc1cccc(CNC(=O)c2cccc(-n3c(C)nc4cccnc43)c2C)c1
(60) Cc1cccc(N(C)S(=O)(=O)c2cc3[nH]c(=O)c(=O)[nH]c3cc2C)c1
screen / no.	55	56	57	58	59	60
HTT promoter inh	u	u	-13%	-18%[11.5 µM]	-26%	0%
PMP22 txn prim	u	u	-9%	2%	u	5%

(61) CCOc1ccc2nc(N3CCCC(C(=O)Nc4ccc(Br)c(C)c4)C3)sc2c1 (stereo not drawn)
(62) O=C(CSc1nccn1Cc1ccccc1)Nc1ccc2c(c1)OCO2
(63) COc1ccc(-n2cc(-c3ccccc3)nc2SCC(=O)Nc2ccccc2)cc1Cl
(64) COc1ccccc1CNC(=O)c1ccc(C)c(-n2cnc3cccnc32)c1
(65) COc1ccc(-c2nnc(C3CCN(S(=O)(=O)c4ccc(C)c(C)c4)CC3)o2)cc1
(66) N#C/C(=C1/SC[C@@H](c2ccc(Cl)cc2Cl)S1)n1ccnc1
screen / no.	61	62	63	64	65	66
HTT promoter inh	21%	3%	-23%	-26%	u	u
PMP22 txn prim	u	-9%	11%	-15%	-2%	x

(67) CCOc1ccc(-c2nonc2NC(=O)c2oc3ccc(Cl)cc3c2C)cc1
(68) Cc1ccc(OCc2nc(-c3ccc(C(=O)NCCc4ccc(S(N)(=O)=O)cc4)cc3)oc2C)cc1
(69) Nc1c(C(=O)NCc2ccc3c(c2)OCO3)nnn1CC(=O)Nc1ccc(Br)cc1
(70) CCOc1ccc(C2CC(=O)n3nc(-c4ccc(C)cc4)nc3S2)cc1OC (stereo not drawn)
(71) COC(=O)c1scc(-c2ccc(C)cc2)c1S(=O)(=O)Nc1cccc(Cl)c1C
(72) Cc1ccc(S(=O)(=O)NCC2CCC(C(=O)NCCc3ccc(Cl)cc3)CC2)cc1 (stereo not drawn)
screen / no.	67	68	69	70	71	72
HTT promoter inh	-12%	u	-10%	4%	-19%	0%
PMP22 txn prim	u	-43%	u	-22%	-7%	-4%

(73) NCC1CCC(C(=O)Oc2ccc(CCC(=O)O)cc2)CC1 (stereo not drawn)
(74) CCCN1C(=O)c2[nH]nc(-c3ccccc3O)c2C1c1ccc(OCc2ccccc2)c(OC)c1 (stereo not drawn)
(75) O=C(CSc1nc2c(c(=O)[nH]1)CCCC2)Nc1ccccc1C(F)(F)F
(76) CN(C)CCCNC(=O)C(=O)NCC(c1ccc2c(c1)OCO2)N1CCOCC1 (stereo not drawn)
(77) CCC(Oc1ccccc1)C(=O)Nc1ccc(OCc2cc(=O)n3ccccc3n2)cc1 (stereo not drawn)
(78) O=C(CCCN1CCN(c2ccccn2)CC1)c1ccc(F)cc1
(79) Cc1nc(N2C(=O)c3oc4ccccc4c(=O)c3C2c2ccccc2F)sc1C (stereo not drawn)
(80) Cc1cccc(-c2nc3cc(NC(=O)c4ccc(OCC(C)C)cc4)ccc3o2)c1
(81) O=C(CSc1nnc(-c2ccc(Cl)cc2)o1)Nc1ccc(F)cc1
screen / no.	73	74	75	76	77	78	79	80	81
HTT promoter inh	-23%	u	-26%	1%	9%	-18%	-14%[11.5 µM]	-6%	67%[activator]
PMP22 txn prim	x	u	2%	-11%	-21%	x	29%	-28%	4%
